# Source: PubChem BioAssay
# Sfp inh = Sfp phosphopantetheinyl transferase inhibition. AID 1490. Q9F4F7. Potency, µM, for the others: max response, negative = inhibition, actives largely listed as inhibitors. 3.5% of 310,000 active. Biochemical Sfp PPTase activity, qHTS; active = well fitted inhibition curve with a large enough effect; inconclusive = small, poorly fitted or top-dose-only effect, or another doubt; inactive = no such curve, though single readings can be large or run the other way;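 also: the enzyme is Sfp with the accession as filed and its product quenches rhodamine fluorescence; potency is read from the fitted curve at half-maximal effect; 0% = enzyme reaction without inhibitor and -100% = no enzyme wells; top concentration of the series not given in the record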
#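 Step 1, compound plus 15 nM Sfp-PPTase, 15 min, room temperature. Step 2, add rhodamine-CoA (5 uM) and BHQ-2-YbbR (12.5 uM). Step 3, read 525/598 nm fluorescence at 0 and 30 min.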
# D2 agonist = activates the human D2 dopamine receptor | 0.084% of 360,000 active | AID 624465 | P14416 | DiscoveRx PathHunter D2 beta-arrestin, luminescence, 90 min; 100% = 57 uM dopamine signal | activation, % (no concentration beside the values); in the data active = activation above about 40%; inconclusive = about 15% to 40%; inactive = below about 15%; also: compound concentration not given in the record; the text of the record calls up to 30% inactive
#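 DiscoveRx PathHunter D2 beta-arrestin cells (2,100/well) attached overnight, then compound-stimulated 90 min at 37 C in HBSS/10 mM HEPES/0.1% Tween-20 buffer; beta-galactosidase complementation read by luminescence after 1 h at ambient temperature. Dopamine 57 uM final (EC100) as control.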
# PINK1 expr mod = changes PINK1 expression. AID 624263. PINK1 immunofluorescence, high-content cytometry, 24 h. 0.2% of 410,000 active. Potency, µM (titrated, usually from 76.6 µM), for inactives: top-dose activation (PINK1 increase), actives largely listed as activators; active = well fitted activation curve with a large enough effect; inconclusive = small, poorly fitted or top-dose-only effect; inactive = flat fitted curve, though single readings scatter; cell line not stated here;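 also: potency is read from the fitted curve at half-maximal effect; % of control where 0% means no effect; nearly all actives have a fitted effect of over 65% in size; a mitochondrial uncoupler was the plate control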
#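 Cells are seeded, rested 12 hours, then given compound at five concentrations or DMSO for 24 hours. After fixation, blocking and antibody staining, PINK1 amount and mitochondrial localization are scored; CCCP serves as control.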
# CtBP-E1A inh = blocks the CtBP interaction with E1A | activity change, % (test concentration not listed) | AID 651724 | 0.49% of 340,000 active | AlphaScreen GST-E1A/His-CtBP binding, 1536-well; stronger effect = lower value; control for the full effect not named in the record; in the data active means activity change below about -65%; inconclusive means about -30% to -65%; inactive means above about -30%; also: % is scaled to controls: 0 for no effect and ±100 for the full control effect; compound concentration not given in the record
#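 AlphaScreen with 125 nM GST-E1A and 125 nM His-CtBP (5X stocks) in Tris pH 8.0, 300 mM NaCl, BSA, Tween 20, TCEP. Compounds preincubated 2 h at 37 deg C, then glutathione donor/nickel acceptor beads added for 1 h at 37 deg C in dark.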
# D2 potentiator = human D2 receptor positive allosteric modulation; DiscoveRx D2 beta-arrestin cells, luminescence, 90 min; 100% = 57 uM dopamine signal; potentiation, % (no concentration beside the values); 0.23% of 360,000 active; AID 624464; active = potentiation of 50% or more; inconclusive = 30% to 50%; inactive = 30% or less;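 also: compound concentration not given in the record; tested on top of an EC20 dose of dopamine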
#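 PathHunter beta-arrestin assay in DiscoveRx D2 cells. Compounds were added with an EC20 of dopamine (50 nM final) for 90 min at 37 deg C. Luminescence was read 1 h after detection reagent, with 57 uM dopamine as the EC100 control.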
# Six1-Eya2 inh = Six1/Eya2 interaction inhibition | Q15475+O00167 | AlphaScreen GST-Six1/His-Eya2 binding, biochemical; stronger effect = lower value; control for the full effect not named in the record | activity change, % (concentration not given with the values) | 0.56% of 360,000 active; in the data active = activity change below about -65%; inconclusive = about -30% to -65%; inactive = above about -30%; also: % is scaled to controls: 0 for no effect and ±100 for the full control effect
# Target sequence (O00167 whole entry, looked up): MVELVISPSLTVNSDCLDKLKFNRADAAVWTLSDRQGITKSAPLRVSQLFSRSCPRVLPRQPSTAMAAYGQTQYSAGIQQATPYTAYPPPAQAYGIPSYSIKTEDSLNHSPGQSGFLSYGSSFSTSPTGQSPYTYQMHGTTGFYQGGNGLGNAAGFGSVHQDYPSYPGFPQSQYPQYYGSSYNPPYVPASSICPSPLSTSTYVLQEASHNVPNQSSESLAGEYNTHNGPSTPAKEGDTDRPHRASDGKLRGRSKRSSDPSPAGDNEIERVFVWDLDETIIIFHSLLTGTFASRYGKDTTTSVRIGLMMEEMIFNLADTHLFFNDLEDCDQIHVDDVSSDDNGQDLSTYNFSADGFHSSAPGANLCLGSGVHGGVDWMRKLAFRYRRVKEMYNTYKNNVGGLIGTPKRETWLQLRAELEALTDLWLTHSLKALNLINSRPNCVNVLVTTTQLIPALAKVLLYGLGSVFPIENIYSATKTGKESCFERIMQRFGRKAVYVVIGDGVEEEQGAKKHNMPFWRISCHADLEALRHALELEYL
# Target sequence (Q15475 whole entry, looked up): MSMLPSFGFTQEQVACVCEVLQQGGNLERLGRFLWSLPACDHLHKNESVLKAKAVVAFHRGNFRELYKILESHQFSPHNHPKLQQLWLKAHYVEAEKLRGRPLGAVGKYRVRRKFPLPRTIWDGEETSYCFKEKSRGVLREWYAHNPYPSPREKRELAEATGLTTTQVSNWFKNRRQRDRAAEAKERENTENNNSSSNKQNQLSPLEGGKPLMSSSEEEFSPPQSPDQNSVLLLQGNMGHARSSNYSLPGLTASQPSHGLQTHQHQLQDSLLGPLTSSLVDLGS
#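 GST-Six1 + His-Eya2 (5X stock: 250/500 nM); Tris pH 8.0, 300 mM NaCl, 0.05% BSA, 0.02% Tween 20; GSH donor/Ni acceptor beads; 1 h 37 °C dark; AlphaScreen readout.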
# TRPV1 PAM = human TRPV1 potentiation; Q8NER1; TRPV1-expressing cells, Fluo-8 calcium influx, capsaicin EC20 potentiation; host cell line not named in the record; control for the full effect not named in the record; potentiation, % at 8.33 µM; 0.02% of 320,000 active; AID 540277; active means potentiation above 80%; inconclusive means 30% to 80%; inactive means below 30%; also: 0% is about no effect
#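 Cells expressing TRPV1 were dye-loaded with Fluo-8 and read kinetically: 10 s baseline, 3 min after compound (agonist portion), then 2 min after EC20 capsaicin (allosteric enhancer portion). Calcium-bound dye fluorescence at 480/520 nm.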
# * marks the source's active call; other numbers are inactive results; ? = inconclusive; / = not tested or not shown; [ ] = remark or other dose.
# Screens by letter: A = Sfp inh; B = D2 agonist; C = PINK1 expr mod; D = CtBP-E1A inh; E = D2 potentiator; F = Six1-Eya2 inh; G = TRPV1 PAM
N#Cc1cnn(-c2cc(Cl)ccc2Cl)c1N
  A: / | B: -4.5 | C: 0.8% | D: 0 | E: -13 | F: 30 | G: /
COc1ccccc1-n1cnnc1SCC(=O)N1CC(=O)Nc2ccccc21
  A: 11% | B: -3.7 | C: -1.9% | D: 0 | E: -16 | F: -6 | G: 1
Cc1cc2ccccc2n1CCNC(=O)c1ccc(S(=O)(=O)N2CCCCC2)cc1
  A: ? | B: -9.0 | C: 5.3% | D: -6 | E: -5 | F: -6 | G: -11
Cc1ccc(S(=O)(=O)N2CCC[C@H]2C(=O)Nc2ccccc2Cl)cc1
  A: / | B: -3.1 | C: 0.4% | D: 0 | E: -9 | F: -4 | G: /
CSc1ncccc1C(=O)Nc1nc2c(C)cccc2s1
  A: -8% | B: -3.9 | C: 6.4% | D: / | E: -8 | F: 6 | G: 11
COC(=O)c1ccccc1CC1Cc2cc3c(cc2C1=O)CCC3 (centres undefined)
  A: / | B: -1.5 | C: 1.4% | D: 7 | E: -12 | F: 26 | G: /
COC(=O)[C@@]1(Cc2ccccc2)[C@H]2C(=O)N(C)C(=O)[C@H]2[C@H]2CN=C(SCC3CC3)N21
  A: / | B: -1.8 | C: 0.1% | D: 0 | E: 2 | F: 31 | G: /
O=C(NCCNC(=O)c1ccccn1)c1ccc(F)cc1
  A: 1% | B: 0.6 | C: -0.1% | D: 3 | E: -4 | F: -4 | G: 13
Cc1cccc(C(=O)Nc2ccccc2SCC(=O)Nc2ccc(C)c(Cl)c2)c1
  A: 4% | B: -0.9 | C: 0.2% | D: 2 | E: -24 | F: 14 | G: -1
O=C(Nc1ncnc2sc3c(c12)CCCCC3)c1ccccc1
  A: 7% | B: 1.8 | C: / | D: -4 | E: -10 | F: 5 | G: -14
CCCOc1ccc(-c2csc3nc[nH]c(=O)c23)cc1
  A: -4% | B: -2.3 | C: 1.2% | D: / | E: 3 | F: 6 | G: 0
Cc1ccc(C)c(NC(=O)CNC(=O)N2CC(=O)Nc3ccccc32)c1
  A: 9% | B: -1.7 | C: 0.2% | D: -11 | E: -11 | F: 5 | G: 6
CCCCn1c(N)c(N(CCOC)C(=O)c2ccc(N3CCCC3)c([N+](=O)[O-])c2)c(=O)[nH]c1=O
  A: / | B: -4.6 | C: -0.2% | D: 1 | E: -5 | F: 5 | G: 1
CCOc1ccc(NC(=S)c2ccncc2)cc1
  A: ? | B: -3.4 | C: 4.9% | D: 0 | E: -15 | F: -7 | G: -14
CCC1(c2ccccc2)NC(=O)N(CC(=O)Nc2cccc(C#N)c2)C1=O (centres undefined)
  A: 0% | B: -1.5 | C: -0.8%[38.3 µM] | D: 0 | E: -18 | F: -1 | G: -5

# Among those listed so far, 2 have a thiophene ring, fused or not.
# Screens by letter: A = Sfp inh; B = D2 agonist; C = PINK1 expr mod; D = CtBP-E1A inh; E = D2 potentiator; F = Six1-Eya2 inh; G = TRPV1 PAM
O=C(Nc1ncnc2sc3c(c12)CCCCC3)c1ccccc1
  A: 7% | B: 1.8 | C: / | D: -4 | E: -10 | F: 5 | G: -14
CCCOc1ccc(-c2csc3nc[nH]c(=O)c23)cc1
  A: -4% | B: -2.3 | C: 1.2% | D: / | E: 3 | F: 6 | G: 0

# Further entries:
# Screens by letter: A = Sfp inh; B = D2 agonist; C = PINK1 expr mod; D = CtBP-E1A inh; E = D2 potentiator; F = Six1-Eya2 inh; G = TRPV1 PAM
CCC1(c2ccc(Cl)cc2)NC(=O)N(CC(=O)NC2CCCC(C)C2C)C1=O (centres undefined)
  A: / | B: -2.3 | C: 0.7% | D: 8 | E: -2 | F: -7 | G: 6
CCOC(=O)C1CCCN(C(=O)CSc2nccn2C)C1 (centres undefined)
  A: 3% | B: -1.2 | C: -1.2% | D: 16 | E: 2 | F: 1 | G: 21
O=C(CSc1nnc(-c2cccnc2)n1Cc1ccccc1)N1CCOCC1
  A: 16% | B: -3.2 | C: -1.6%[38.3 µM] | D: 5 | E: -7 | F: 2 | G: -6
O=C(CCCCl)Nc1c2c(nn1-c1ccccc1)CSC2
  A: -2% | B: -1.0 | C: 3.6% | D: 0 | E: -3 | F: 3 | G: 0
Cn1c(SCC(=O)Nc2cccc(O)c2)nnc1-c1ccc(S(=O)(=O)N2CCOCC2)cc1
  A: 9% | B: -0.5 | C: 14µM* | D: 1 | E: -4 | F: -2 | G: 27
CCc1ccc(NC(=O)COC(=O)c2ccc(Cl)c(S(=O)(=O)N3CCCCCC3)c2)cc1
  A: 14% | B: 1.1 | C: 0.3% | D: -1 | E: -8 | F: 13 | G: 2
O=C(NCC(=O)N(Cc1cccs1)C(C(=O)NC1CCCCC1)c1ccco1)c1ccco1 (centres undefined)
  A: -21% | B: -2.6 | C: -1.1% | D: 5 | E: -17 | F: -1 | G: 17
COc1ccccc1CCN=C(N)NS(=O)(=O)c1ccccc1F
  A: 14% | B: 0.2 | C: -2.2% | D: 2 | E: 28 | F: 2 | G: 16
C=CCc1c(C)[nH]c2ccc(C)cc2c1=O
  A: 0% | B: -3.1 | C: 0.5% | D: 9 | E: -21 | F: 2 | G: 19
CCCCn1c(=O)c(CCC(=O)OCC(=O)Nc2cc(Cl)ccc2OC)nc2ccccc21
  A: 16% | B: -0.5 | C: ? | D: -16 | E: -15 | F: 6 | G: 7
COc1ccc(OCC(=O)Nc2ccccc2OC)cc1
  A: -8% | B: -2.4 | C: ? | D: -12 | E: -3 | F: 1 | G: 9
C=CCNC(=O)CN1C(=O)NC(C)(c2ccc(OC)cc2)C1=O (centres undefined)
  A: 17% | B: -2.8 | C: 0.0% | D: 0 | E: 1 | F: 2 | G: 3
COC(=O)NCN1C(=O)C2C3C=CC(C3)C2C1=O (centres undefined)
  A: 17% | B: -5.7 | C: 3.9% | D: 0 | E: -2 | F: 6 | G: ?
CC(=O)OCCN1C(=O)c2cccnc2C1=O
  A: -7% | B: -0.9 | C: 6.7% | D: -5 | E: -2 | F: -12 | G: 7

# Copied from the list.
# Value for Cn1c(SCC(=O)Nc2cccc(O)c2)nnc1-c1ccc(S(=O)(=O)N2CCOCC2)cc1 in Six1-Eya2 inh: -2
# Value for O=C(NCC(=O)N(Cc1cccs1)C(C(=O)NC1CCCCC1)c1ccco1)c1ccco1 (centres undefined) in Sfp inh: -21%
# Value for CCOC(=O)C1CCCN(C(=O)CSc2nccn2C)C1 (centres undefined) in D2 agonist: -1.2
# Value for CC(=O)OCCN1C(=O)c2cccnc2C1=O in D2 agonist: -0.9
# Value for Cc1ccc(S(=O)(=O)N2CCC[C@H]2C(=O)Nc2ccccc2Cl)cc1 in Six1-Eya2 inh: -4
